# Assay outcomes: PubChem, several laboratories
# CBX7 AlphaScr: inhibitors of human CBX7 binding to H3K27me3 peptide; O95931; normalised signal (fraction of DMSO) (concentration not given with the values); AlphaScreen His6-CBX7 / biotin-H3K27me3 peptide binding; active compounds read low; 66,000 compounds, 1.1% hits; in the data active means normalised signal below about 0.5;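 further: 100 nL library stock added to about 20 µL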
# Target sequence (O95931 whole entry, looked up): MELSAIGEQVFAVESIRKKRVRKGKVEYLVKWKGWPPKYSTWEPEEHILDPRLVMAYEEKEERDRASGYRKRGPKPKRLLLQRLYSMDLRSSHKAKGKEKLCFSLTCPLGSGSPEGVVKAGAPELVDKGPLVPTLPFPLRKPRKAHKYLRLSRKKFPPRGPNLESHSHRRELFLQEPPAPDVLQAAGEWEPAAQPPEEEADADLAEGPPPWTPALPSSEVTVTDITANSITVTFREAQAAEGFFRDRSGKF
# CBX7 AlphaScr z-score: recorded beside CBX7 AlphaScr, whose call it bears; z-score; measured here: z-score of CBX7 signal; some inactives read as strong as hits; reference of the scale not given here;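 same signal on another scale; lower means less binding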
# The depositor's hits bear a star.
SMILES,CBX7 AlphaScr,CBX7 AlphaScr z-score
CCC(C)NC(=O)c1cc(Nc2ccc(OC)c(OC)c2)nc2ccccc12 (centres undefined),0.868,-1.57
CCc1ccc(N(CC(=O)Nc2ccc(Cl)cc2)S(=O)(=O)c2c(C)noc2C)cc1,0.978,-0.389
CCCNC(=O)CN1C(=O)COc2ccc(S(=O)(=O)N3CCCCCC3)cc21,1.05,1.5
NC(=O)Nc1nc2cc(Cl)cc(Cl)c2[nH]c1=O,0.961,-0.498
COc1cc2c(C(=O)NCCCN3CCN(c4cccc(Cl)c4)CC3)cn(CC(C)C)c(=O)c2cc1OC,1.03,0.232
COCCNC(=O)c1cc(Nc2cccc(C(F)(F)F)c2)nc2ccccc12,1.22,3.49
CCc1ccccc1NC(=O)C(NS(=O)(=O)c1ccc2c(c1)CCC(=O)N2)c1ccccc1 (centres undefined),0.958,-1.38
Cc1cc2c(cc(C(=O)NCCc3ccccc3)n2Cc2ccc(Cl)cc2)o1,0.838,-4.45
Oc1ccc(C2(c3cccc(F)c3)CCCCC2)cc1,1.01,0.3
COc1ccc(OC)c(CCNC(=O)Cn2ncc3c2-c2ccccc2OC3)c1,0.942,-0.991

# Seven consecutive entries already listed, for reference:
SMILES,CBX7 AlphaScr,CBX7 AlphaScr z-score
CCC(C)NC(=O)c1cc(Nc2ccc(OC)c(OC)c2)nc2ccccc12 (centres undefined),0.868,-1.57
CCc1ccc(N(CC(=O)Nc2ccc(Cl)cc2)S(=O)(=O)c2c(C)noc2C)cc1,0.978,-0.389
CCCNC(=O)CN1C(=O)COc2ccc(S(=O)(=O)N3CCCCCC3)cc21,1.05,1.5
NC(=O)Nc1nc2cc(Cl)cc(Cl)c2[nH]c1=O,0.961,-0.498
COc1cc2c(C(=O)NCCCN3CCN(c4cccc(Cl)c4)CC3)cn(CC(C)C)c(=O)c2cc1OC,1.03,0.232
COCCNC(=O)c1cc(Nc2cccc(C(F)(F)F)c2)nc2ccccc12,1.22,3.49
CCc1ccccc1NC(=O)C(NS(=O)(=O)c1ccc2c(c1)CCC(=O)N2)c1ccccc1 (centres undefined),0.958,-1.38

# Next part:
SMILES,CBX7 AlphaScr,CBX7 AlphaScr z-score
O=c1cc(Cc2nnc(SCc3cccnc3)n2-c2ccccc2)[nH]c(=O)[nH]1,1.02,0.618
CCc1ccc2c(c1)c(=O)c(S(=O)(=O)c1ccc(F)cc1)cn2CC(=O)Nc1cccc(C)c1,0.921,-1.3
CC(C)c1ccc(NC(=O)CSc2nc3c(c(=O)[nH]2)CCC3)cc1,0.85,-1.94
NC(=O)C1CCN(C2CC(=O)N(c3cccc4ccccc34)C2=O)CC1 (centres undefined),0.992,-0.124
Cn1c(C(=O)N2CCC(C(=O)NCCN3CCCC3)CC2)cc2sccc21,1.18,3.3
Cc1cc(=O)n2nc(N3CCC(C(=O)NC4CCCC4)CC3)sc2n1,1.01,0.575
CCCCN(CC)CCNC(=O)c1ccc2c(c1)N=C(C)c1cc(Cl)ccc1S2,1.42,5.05
CCc1cc(C)nc2cc(-c3ccccc3)nn12,1.06,0.962
CCc1ccccc1Nc1cc(C(=O)NCCc2ccc(OC)c(OC)c2)c2ccccc2n1,1.04,0.641
COc1cc(SC)ccc1C(=O)Nc1cccc(CCc2ccccn2)c1,0.982,-0.406

# Single records, from the list above:
# CCc1cc(C)nc2cc(-c3ccccc3)nn12 across the screens: CBX7 AlphaScr: 1.06; CBX7 AlphaScr z-score: 0.962
# CCc1ccc2c(c1)c(=O)c(S(=O)(=O)c1ccc(F)cc1)cn2CC(=O)Nc1cccc(C)c1 across the screens: CBX7 AlphaScr: 0.921; CBX7 AlphaScr z-score: -1.3
# CCCCN(CC)CCNC(=O)c1ccc2c(c1)N=C(C)c1cc(Cl)ccc1S2 across the screens: CBX7 AlphaScr: 1.42; CBX7 AlphaScr z-score: 5.05

# Additional records follow:
SMILES,CBX7 AlphaScr,CBX7 AlphaScr z-score
COCCNC(=O)CSCc1nc(-c2ccc(Cl)cc2)oc1C,0.992,-0.344
Cc1ccc(Cl)cc1NC(=O)c1oc2ccc(S(=O)(=O)N3CCCCCC3)cc2c1C,1.01,0.43
Cc1ccccc1NC(=O)NCCN1CCN(c2cccc(Cl)c2)CC1,1.08,1.59
COc1ccc(/C=C/c2nn3c(-c4ccccc4)nnc3s2)cc1,1.05,2.11
O=C1CC(c2nc3ccccc3n2CCOc2ccccc2)CN1c1ccc(Br)cc1 (centres undefined),1.03,0.161
Cc1ccc(-c2ccc(=O)n(CCC(=O)NCCN3CCC(Cc4ccccc4)CC3)n2)cc1,0.995,-0.232
O=C(CN1C(=O)COc2ccccc21)Nc1ccc(F)cc1,0.926,-3.28
COc1cc2c(cc1OC)C(c1ccc(C(C)C)cc1)CC(=O)N2 (centres undefined),0.703,-1.2
Cc1cccc2c1-c1sc(C(=O)NCCc3c[nH]c4ccccc34)cc1CO2,0.916,-2.37
CC(C)(C)OC(=O)N1CCC(c2c(C(=O)Nc3ccc4c(c3)OCO4)cnn2-c2ccccc2)CC1,0.794,-7.26

# 2 records drawn at random from those above:
SMILES,CBX7 AlphaScr,CBX7 AlphaScr z-score
Cc1ccccc1NC(=O)NCCN1CCN(c2cccc(Cl)c2)CC1,1.08,1.59
CCCCN(CC)CCNC(=O)c1ccc2c(c1)N=C(C)c1cc(Cl)ccc1S2,1.42,5.05

# New compounds follow
SMILES,CBX7 AlphaScr,CBX7 AlphaScr z-score
CCOc1ccc(NS(=O)(=O)c2ccc3[nH]cc(C(=O)NCC(OC)OC)c(=O)c3c2)cc1,1.07,1.23
CSCCC(Nc1ncnc2ccccc12)C(=O)O (centres undefined),1.02,0.596
COc1ccc(N(CC(=O)Nc2ccccc2C)S(=O)(=O)c2c(C)nn(C)c2C)cc1,1.14,0.972
Cc1ccc(NC(=O)c2ccc(S(=O)(=O)N3CCCCC3)cc2)cc1,0.936,-0.617
COc1ccc(-c2cn(-c3ccc(Cl)cc3)c(S(=O)(=O)CC(=O)Nc3ccccc3C)n2)cc1,0.813,-1.89
COc1ccccc1N1CCN(C(=O)CCc2nc(-c3ccc(C)cc3)no2)CC1,0.945,-0.0743
CCC(Oc1ccccc1)C(=O)Nc1cc(C)on1 (centres undefined),1.24,2.68
COc1ccc(Cl)cc1C(=O)Nc1ccc2nn(-c3ccc(F)cc3)nc2c1,0.983,-0.292
COc1cccc(Nc2nc(-c3ccccc3Cl)c3cc(Br)ccc3n2)c1,0.693,-5.17
CCOC(=O)c1cnc2ccc(OCC)cc2c1Nc1ccc(C(F)(F)F)cc1,1.01,0.0111
CCCC1C(c2ccccc2)NC(c2ccccc2)CC1(O)Cc1ccccc1 (centres undefined),1.06,1.41
COc1ccc(NC(=O)CSc2nccn2-c2cccc(Cl)c2)cc1,0.949,-0.908
COc1ccc(NC(=O)c2c(NCc3cccc(OC)c3OC)sc3c2CCCCC3)c(OC)c1,0.826,-2.43
CCOc1ccc2c(c1)c(=O)c(S(=O)(=O)c1ccc(F)cc1)cn2CC(=O)Nc1ccc(F)cc1,0.99,-0.312
Cc1ccc(SCc2cc(=O)[nH]c(Nc3nc(C)c4cccc(C)c4n3)n2)cc1,1.02,1.01
Cc1cc(C(=O)NCCN(CC(C)C)CC(C)C)n(-c2ccccc2)n1,1.14,2.19
O=C(Nc1ccc2c(c1)OCO2)[C@@H](c1ccccc1)N1Cc2ccccc2C1=O,0.92,-3.48
Cc1ccc(NC(=O)Cn2c(C(F)(F)F)nc3ccccc32)cc1C,0.981,-0.22
Cc1ccc(F)cc1Nc1nc(Cc2ccccc2)nc2sc3c(c12)CCCC3,1.02,0.77
CC1=C(C(=O)Nc2cccc(C)n2)C(c2ccc(Cl)cc2)C2=C(CCCC2=O)N1 (centres undefined),1.48,0.98
CCN(CC)c1ccc(NC(=O)CN2C(=O)CSc3ncccc32)c(C)c1,0.971,-0.0733
COc1ccc(NC(=O)C(CC(C)C)N2C(=O)c3ccccc3C2=O)cc1 (centres undefined),1.01,0.543
Cc1ccc(CCNC(=O)CN2CC(c3ccccc3)CC2=O)cc1 (centres undefined),1.01,0.163
CCCCOc1ccc(C2C(=O)N(C3CCCCC3)CC(=O)N2Cc2ccc(Cl)cc2)cc1 (centres undefined),1.09,0.372
CCCCn1c(COc2ccc(C)cc2)nc2ccccc21,1.11,1.25
Cc1ccc(Cl)cc1N1CCN(C(=O)C2CCN(c3nnc(-n4cccc4)s3)CC2)CC1,0.977,-0.909
CCOC(=O)c1[nH]c2c(c1CCc1cccc(OC)c1)C(=O)CC(c1ccc(OCC)cc1)C2 (centres undefined),0.732,-1.77
Cc1ccc(NC(=O)CCc2nnc3ccc(N4CCN(c5cccc(C)c5)C(C)C4)nn23)cc1 (centres undefined),0.913,-1.97
COc1ccc(-c2nc(CSCC(=O)NCCCN3CCOCC3)c(C)o2)cc1,0.918,-3.91
Cc1ccc(-c2noc(CCC(=O)N3CCN(c4cccc(C(F)(F)F)c4)CC3)n2)cc1,0.99,-0.371
Cc1onc(-c2ccccc2Cl)c1C(=O)Nc1cccnc1,1.1,2.24
CCN1CCCC1CNC(=O)c1cc(C)nn1-c1ccccc1 (centres undefined),1.02,0.402
CCOc1ccccc1NC(=O)Cn1cnc2c(nnn2-c2ccc(OC)cc2)c1=O,0.912,-1.69
CCN1CCCC1CNC(=O)c1ccc2c(c1)N(Cc1ccccc1Cl)C(=O)c1ccccc1S2 (centres undefined),1.01,0.174
CC(C)c1cc(C(=O)Nc2cccnc2Cl)no1,1.18,1.89
CCc1ccc(-c2nc(CN3CCC(C(=O)NCc4ccccc4Cl)CC3)c(C)o2)cc1,0.769,-2.5
COCCNc1nc(-c2ccc(C(C)(C)C)cc2)nc2ccccc12,0.822,-2.24
COc1ccc(CCN2CC(C(=O)NCCCN3CCC(Cc4ccccc4)CC3)CC2=O)cc1OC (centres undefined),1.05,2.49
N#Cc1c(NC(=O)c2cc(-c3ccc(Br)cc3)on2)sc2c1CCC2,1.04,1.47
COc1ccccc1OCc1nc(-c2ccc(Cl)cc2)no1,1.94,1.11
Cc1cc2c(cc1C)NC(c1ccc(C(F)(F)F)cc1)C1=C(CC(C)(C)CC1=O)N2 (centres undefined),1.02,0.301
COc1ccccc1NC(=O)Nc1nnc(N2C(C)CCCC2C)s1 (centres undefined),0.802,-0.782
CC(=O)Nc1ncc(Cc2cc(Cl)ccc2Cl)s1,1.17,1.98
Cc1ccccc1NC(=O)CN1C(=O)COc2ccc(Cl)cc21,1.06,1.75
CCOC(=O)c1ccccc1NC1c2ccccc2C(=O)N1c1ccccc1C (centres undefined),0.9,-3.35
COc1ccc(Nc2ncc(C(=O)NCc3cccnc3)c3ccccc23)cc1,0.979,-0.349
CCOc1ccc2nc(N3CCCC(C(=O)NC4CCCC4)C3)sc2c1 (centres undefined),1.33,1.93
CCn1ccnc1C(O)(c1ccccc1)c1ccccc1,1.05,0.929
Cc1ccc2c(c1)N(CCCC(=O)NC1CCCC(C)C1C)C(=O)CO2 (centres undefined),1.47,0.957
CCCOc1ccccc1C1CC(=O)C2=C(C1)Nc1ccccc1N(C(C)=O)C2c1ccc(OC)cc1 (centres undefined),0.894,-1.82

# (list continues)
SMILES,CBX7 AlphaScr,CBX7 AlphaScr z-score
CC(C)NC(=O)C1CC(c2ccc(F)cc2)=NO1 (centres undefined),0.997,-0.142
COc1ccccc1N1CCN(c2cc(=O)n(-c3ccc(Cl)cc3)c(=O)[nH]2)CC1,1.02,0.135
Nc1c2c(nc3ccccc13)N(Cc1ccccc1)CC2,0.932,-0.119
Cc1ccc2c(c1)C(c1ccc(F)cc1)N(C(=O)C1CCCCC1)CC(=O)N2 (centres undefined),0.968,-0.654
CCOc1cc(/C=C/c2cc(C(F)(F)F)[nH]c(=O)n2)ccc1OCc1ccccc1,1.15,3.44
O=C(CSc1ncc(-c2ccccc2)[nH]1)Nc1ccc(Br)cc1,0.818,-8.21
O=C(CSc1ncccn1)Nc1nc(-c2ccc(F)cc2F)cs1,1.14,0.999
CCOC(=O)C1CCCN(c2c(NCCCN(CC)c3cccc(C)c3)c(=O)c2=O)C1 (centres undefined),0.921,-2.34
O=C(c1cnn(-c2ccccc2)c1-n1cccc1)N1CCC(C(=O)N2CCOCC2)CC1,1.01,0.534
CCOc1ccc(Nc2cc(C)c3ccccc3n2)cc1,1.06,0.735
Cn1c(/C=C/c2ccc(Br)cc2)nc2ccccc2c1=O,0.957,-1.41
Cc1ccc(-n2c(C)nc3cc(C(=O)O)ccc32)c(C)c1,1.26,2.46
CCCNC(=O)c1nn2c(C(F)(F)F)cc(-c3ccc(Cl)cc3)nc2c1Cl,0.911,-1.15
COCCNC(=O)c1ccc2c(c1)nc(C)n2-c1ccc(F)c(F)c1,1.07,2.97
Cc1ccc2ncnc(NC(CO)C(=O)O)c2c1 (centres undefined),0.986,-0.275
Cc1ccc(Cl)cc1N1CCN(CCCNC(=O)CN2C(=O)CSc3ncccc32)CC1,1.04,0.0929
O=C(NCC1CCCO1)c1csc2c1CCCC2 (centres undefined),1.03,0.993
CNc1ccc(OC(F)F)cc1C(=O)c1ccccc1,0.829,-4.24
CCCCC(=O)N1CC(=O)Nc2ccc(Br)cc2C1c1ccc(F)cc1 (centres undefined),0.915,-1.75
CCOc1ccc2c(c1)c(=O)c(S(=O)(=O)c1ccc(F)cc1)cn2CC(=O)Nc1ccccc1,1.02,0.753
COc1cccc(-n2ccnc2SCC(=O)Nc2ccc(Cl)c(Cl)c2)c1,0.974,-0.456
COc1cc(OC)cc(C(=O)NCCc2cc3ccc(C)c(C)c3[nH]c2=O)c1,1,0.0149
CCCCC1CCC(c2ccc(-c3cccc(F)c3)nc2)CC1 (centres undefined),1.08,1.02
COc1ccc(-c2noc(CCC(=O)N3CCC(C)CC3)n2)cc1,0.939,-0.809
CC1CCCCN1S(=O)(=O)c1ccc2[nH]c(=O)cc(C(=O)NCc3cccnc3)c2c1 (centres undefined),0.971,-1.45
CCNC(=O)CC1C(=O)N(c2ccc(F)cc2)C(=O)N1CCc1sccc1C (centres undefined),1.06,2.51
COc1ccc(C2=NN(CC(=O)NCCc3ccc(OC)c(OC)c3)C(=O)CC2)cc1,1,0.089
CCc1cccc(C)c1Nc1c(-c2ccc(O)cc2)nc2cnccn12,1.07,2.7
Cc1ccc(OCc2nc(-c3ccc(C)cc3)no2)cc1,0.98,-0.328
CCc1ccccc1NS(=O)(=O)c1c(C)noc1C,1,0.195

# Some of the compounds tested (hit frequency here may not be typical).
